KCNQ2 inh – KCNQ2 potassium channel inhibitors, primary screen, cell-based, CHO-K1, FluxOR thallium flux, B-score (AID 2156); hit rate 1.1% among 310,000; 20 min; active compounds read low; only compounds with negative scores are shown here; some inactives read as strong as hits; B-score at 10 µM; O88943;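 active = fluorescence ratio B-score at most minus 3 library SDs, with starting brightness B-score within 2 library SDs, cut at about -5.5 in these data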
Target sequence (O88943 whole entry, looked up): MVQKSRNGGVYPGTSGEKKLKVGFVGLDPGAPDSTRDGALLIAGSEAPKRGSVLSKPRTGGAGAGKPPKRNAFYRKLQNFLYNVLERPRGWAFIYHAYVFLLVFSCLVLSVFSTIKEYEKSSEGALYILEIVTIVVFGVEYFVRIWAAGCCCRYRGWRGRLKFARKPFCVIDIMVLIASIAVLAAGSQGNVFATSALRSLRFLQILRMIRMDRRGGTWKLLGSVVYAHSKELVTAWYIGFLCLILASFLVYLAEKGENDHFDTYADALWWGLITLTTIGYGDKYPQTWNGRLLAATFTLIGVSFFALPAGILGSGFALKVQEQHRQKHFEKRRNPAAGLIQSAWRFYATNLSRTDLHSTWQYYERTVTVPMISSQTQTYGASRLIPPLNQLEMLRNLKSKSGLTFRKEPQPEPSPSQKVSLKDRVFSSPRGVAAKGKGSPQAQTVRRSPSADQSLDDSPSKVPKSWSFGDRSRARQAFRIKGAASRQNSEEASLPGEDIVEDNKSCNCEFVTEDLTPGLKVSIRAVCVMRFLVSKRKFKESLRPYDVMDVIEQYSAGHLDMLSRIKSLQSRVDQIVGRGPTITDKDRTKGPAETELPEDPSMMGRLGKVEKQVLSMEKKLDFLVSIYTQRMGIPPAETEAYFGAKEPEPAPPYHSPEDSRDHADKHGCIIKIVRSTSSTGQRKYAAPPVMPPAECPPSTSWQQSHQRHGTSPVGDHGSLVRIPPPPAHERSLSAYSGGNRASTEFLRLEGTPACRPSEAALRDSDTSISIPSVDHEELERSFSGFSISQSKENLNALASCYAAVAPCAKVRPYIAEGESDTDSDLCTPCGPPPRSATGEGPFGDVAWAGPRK
KCNQ2 inh baseline – further read-out of KCNQ2 inh, marked with its call; B-score; measured here: initial fluorescence intensity artifact check;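 brightness before thallium and not channel activity; 0 = typical well and far values either way flag optical interference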
Numbers without * were called inactive; i = inactive. Only part of the results is shown; count on the stated rates, not on these rows.

KCNQ2 inh	KCNQ2 inh baseline	smiles
i	0.32	Cc1ccc(NC(=O)C2OCCc3ccccc32)cc1Cl (configuration not stated)
i	0.24	Cc1c(NC(=S)SCc2ccccc2)c(=O)n(-c2ccccc2)n1C
i	0.91	COc1cccc(CN(C)Cc2nc(C3CC3)no2)c1
i	0.7	CCCCN(C(=O)Cc1ccc(S(=O)(=O)N2CCOCC2)s1)c1c(N)n(CCCC)c(=O)[nH]c1=O
i	0.09	CNC(=S)N(CCc1c(C)[nH]c2ccc(Cl)cc12)Cc1cccs1
i	2.2	CCOCCCNS(=O)(=O)c1ccc(-n2cnnn2)c(OC)c1
i	0.87	Cc1ccc2[nH]c(-c3cccc(N)c3)cc2c1
i	0.39	CC1CN(C(=O)CCC(=O)NCc2ccc(Cl)cc2)c2ccccc2S1 (configuration not stated)
i	0.03	COc1ccc(CC(=O)NCc2nnc(SCc3ccc([N+](=O)[O-])cc3)n2C)cc1
i	0.59	COc1ccc(C(=O)C2CCCN(Cc3ccc4nonc4c3)C2)cc1F (configuration not stated)
i	0.24	CCn1c(SCC(=O)NC2CCCC2)nnc1-c1cccnc1
i	0.96	Cc1ccc(SCC(=O)N2CCC(C(N)=O)CC2)cc1
i	-0.04	COc1cc(NC(=O)CCNC(=O)Cn2cnc3sc4c(c3c2=O)CCCC4)cc(OC)c1OC
i	0.52	c1ccc(-n2nnnc2SCc2cccc3nsnc23)cc1
i	1.1	COc1ccc(OC)c(Nc2nc(-c3ccccc3O)nc3ccccc23)c1
i	1.6	C/C(=N\Nc1ccc(C(F)(F)F)cc1[N+](=O)[O-])C(C)C
i	1.5	CCCCC(=O)Nc1ccc(NC(=O)c2cc(OC)c(OC)c(OC)c2)cn1
i	0.29	CCOc1ccc(-n2c(=O)[nH]cc(C(=O)N3CCCc4ccccc43)c2=O)cc1
i	1.3	CCc1ccc(N2CC(C(=O)N3CCCC3)CC2=O)cc1 (configuration not stated)
i	0.06	COc1ccc(Cn2c(C3CC3)nc3ccc(NC(=O)C4CC4)cc3c2=O)cc1
i	1.1	CCc1nn(CC(=O)N(C)C2CCCCC2)c(=O)c2cc3cc(C)ccc3n12
i	-1.1	CN1CCN(c2nc(NCCOC34CC5CC(CC(C5)C3)C4)nc(OCC(F)(F)F)n2)CC1
i	-1.5	CCOC(=O)N1CCN(S(=O)(=O)c2ccc(C)cc2)C1c1ccc(OC)cc1 (configuration not stated)
i	-0.42	COc1cc(OC)c(C2C(C(=O)O)c3ccccc3C(=O)N2C)cc1OC (configuration not stated)
i	0.09	O=C(c1ccc(Cl)cc1)N(Cc1ccc(Br)cc1)N1C(=O)CCC1=O
i	-1.1	O=C(Nc1cccc(-c2nc3ccccc3c(=O)o2)c1)c1ccccc1
i	1.9	CCOC(=O)c1c(C)[nH]c(C)c1C(=O)CSc1nncs1
i	0.6	COCC(=O)OCC(=O)Nc1ccccc1-c1ccccc1
i	-0.96	Cc1cc(C)n2nc(SCC(=O)NC3CCCCC3C)nc2n1 (configuration not stated)
i	-1.1	Cc1csc(N/N=C\c2cccnc2)n1
i	0.08	COc1ccc(-c2sc3ccc(OC)cc3c2C#CCCO)cc1
i	1.6	COc1cccc(NC(=O)NNS(=O)(=O)c2ccc(OC)cc2OC)c1
i	-0.15	CC(=O)c1sc(NC(=O)c2cccc3ccccc23)nc1C
i	0.24	O=C(CSc1nc2ccccc2[nH]1)Nc1ccc(N2CCOCC2)cc1
i	-0.71	Cc1ncc(CO)c(/C=N/NC(=O)c2ccc(Br)cc2)c1O
i	2.3	C(=N\n1cnnc1)/c1ccc2c(c1)OCO2
i	0.84	Cc1ccc(CN2CCN(CC(=O)N3CCc4ccccc4C3)C2=O)cc1
i	-0.92	Cc1nc2cc(-c3ccc(F)cc3)[nH]n2c(=O)c1C
i	-0.53	O=C(Cn1cnc2c(nnn2Cc2ccc(Cl)cc2)c1=O)c1ccccc1
i	-0.46	Cc1ccc(C(=O)N2CCOCC2)cc1S(=O)(=O)Nc1cccc(C)c1C
i	1.3	CCOC(=O)C(Cc1ccc(O)cc1)NC(=O)CCc1c[nH]c2ccccc12 (configuration not stated)
i	-0.14	COc1ccc(CC(=O)N2CCN(c3ccccc3)CC2)cc1
i	1.3	COc1ccc(/C=C2\SC(=S)N(CCCC(=O)Nc3ccc(C(=O)O)cc3)C2=O)cc1OC
i	0.39	CC(=O)Nc1ccc(S(=O)(=O)N2CCC(N3CCCCC3)CC2)cc1
i	0.33	CC(C)CN1CCN(Cc2ccc(CN3CCCCC3)s2)CC1CCO (configuration not stated)
i	-1.9	CC(C)CN(C(=O)c1cccc(Cl)c1)c1c(N)n(CC(C)C)c(=O)[nH]c1=O
i	3.3	COC(=O)c1cc(NC(=O)CSc2ncn[nH]2)ccc1Cl
i	0.05	O=C(CSc1ncnc2c1oc1ccccc12)Nc1nccs1

Sorted by heavy-atom count (high to low): some entries from above.
KCNQ2 inh	KCNQ2 inh baseline	smiles
i	1.3	COc1ccc(/C=C2\SC(=S)N(CCCC(=O)Nc3ccc(C(=O)O)cc3)C2=O)cc1OC
i	1.3	CCOC(=O)C(Cc1ccc(O)cc1)NC(=O)CCc1c[nH]c2ccccc12 (configuration not stated)
i	-1.9	CC(C)CN(C(=O)c1cccc(Cl)c1)c1c(N)n(CC(C)C)c(=O)[nH]c1=O
i	0.24	O=C(CSc1nc2ccccc2[nH]1)Nc1ccc(N2CCOCC2)cc1
i	0.39	CC(=O)Nc1ccc(S(=O)(=O)N2CCC(N3CCCCC3)CC2)cc1
i	0.08	COc1ccc(-c2sc3ccc(OC)cc3c2C#CCCO)cc1
i	0.05	O=C(CSc1ncnc2c1oc1ccccc12)Nc1nccs1
i	-0.71	Cc1ncc(CO)c(/C=N/NC(=O)c2ccc(Br)cc2)c1O
i	3.3	COC(=O)c1cc(NC(=O)CSc2ncn[nH]2)ccc1Cl
i	-0.92	Cc1nc2cc(-c3ccc(F)cc3)[nH]n2c(=O)c1C
i	2.3	C(=N\n1cnnc1)/c1ccc2c(c1)OCO2
i	-1.1	Cc1csc(N/N=C\c2cccnc2)n1

(continued)
KCNQ2 inh	KCNQ2 inh baseline	smiles
i	2.1	CC(NC(=O)CCc1ccc(S(=O)(=O)NC2CCCCC2)cc1)c1ccccc1 (configuration not stated)
i	-0.83	COc1ccc(C(CCN2CCCCC2)c2c(OC)cc(OC)c3c(-c4ccccc4)cc(=O)oc23)cc1 (configuration not stated)
i	-0.36	Cn1c(SCc2ccccc2Cl)nc2ccccc21
i	1.9	COc1cc2c(cc1OC)C(C1C(=O)CCCC1=O)N(C(=O)CCl)CC2 (configuration not stated)
i	0.94	O=C(COC(=O)[C@H](Cc1ccccc1)NC(=O)c1cccs1)Nc1cc(F)ccc1F
i	1.3	CCOC(=O)NC(O)C(=O)c1ccc(F)cc1 (configuration not stated)
i	-1.9	O=C(CSc1ncccc1C(=O)O)NCCC1=CCCCC1
i	-1.9	Cc1nn(-c2ccccc2)nc1CNC(=O)C(C)Cc1ccccc1 (configuration not stated)
i	-0.02	COc1ccc(C(=O)N/N=C(\C)CC(=O)Nc2cccc(C(F)(F)F)c2)cc1
i	-0.05	O=C(Nc1nnc(Cc2ccccc2)s1)Nc1ccccc1F
i	-0.23	Cc1cccnc1CN1CCN(Cc2nc(C(c3ccccc3)c3ccccc3)no2)CC1
i	-0.01	CCCS(=O)(=O)N1CCCC(C(=O)N2CCN(C(=O)OCC)CC2)C1 (configuration not stated)
i	-0.15	COc1cc(C)cc2oc(=O)c(CC(=O)N3CCN(C(=O)C4COc5ccccc5O4)CC3)c(C)c12 (configuration not stated)
i	0.56	Cc1ccc(NC(=O)CN2C(=O)CSc3ccc(S(=O)(=O)N4CCCCC4)cc32)cc1
i	2.2	Fc1ccc(-c2nnc(CSc3nnc(-c4cccs4)o3)o2)cc1
i	0.04	C=CCn1cc(/C=N/N2C(=O)C3C4C=CC(C4)C3C2=O)c2ccccc21 (configuration not stated)
i	-0.22	N#C/C(=C\c1ccc(OCc2ccc(Cl)cc2)cc1)C(=O)Nc1cccc(C(=O)O)c1
i	0.26	CC1=NN2C(=N)/C(=C\c3cc(C)n(-c4cccc(C)c4)c3C)C(=O)N=C2S1
i	-0.59	CCc1nc2ccc(C(=O)Nc3nnc(C)s3)cc2nc1CC
i	0.36	CSc1nc(N(C)CCO)c2sc3nc(-c4ccco4)c4c(c3c2n1)CCC4
i	-2.2	OCC1(Cc2cccc(Cl)c2)CCCN(Cc2ccc3cc(F)ccc3n2)C1 (configuration not stated)
i	-0.8	Cc1cccc(NC(=O)CN2CCOCC2)c1C
i	1.8	Cc1nn(Cc2ccccc2)c(Cl)c1/C=C/C(=O)OCC(=O)NC(C)C(C)C (configuration not stated)
i	1.4	CCCCOc1ccc(C(=O)Nn2cnnc2)cc1
i	-0.98	Cc1ccc2nc(-c3ccc(SCC(=O)Nc4cc(C)on4)nc3)[nH]c2c1
i	1.1	COC(=O)c1ccc(C(=O)OC)c(NC(=O)CSc2cccc[n+]2[O-])c1
i	-0.26	Cn1c(SCC(=O)NNC(=O)c2ccccc2O)nnc1-c1ccccc1
i	-1.3	COc1cc(-c2cc(C(F)(F)F)n3ncc(C(=O)O)c3n2)cc(OC)c1OC
i	-0.45	COC(=O)CN1C(=O)COc2ccc(S(=O)(=O)NCc3ccc(F)cc3)cc21
i	-1.4	COc1ccc(-c2nnc3ccc(SCC(=O)Nc4nc5ccc(C)cc5s4)nn23)cc1OC
i	2.7	COc1cc(OC)c(C(=O)CCC(=O)O)cc1OC
i	0.19	CN1CCC=C(C(=O)N2c3ccccc3Sc3ccc(Cl)cc32)C1
i	-1.2	Cc1cc(NC(=O)CSc2nnc(Nc3ccccc3F)s2)no1
i	-0.08	Cc1c(NS(=O)(=O)CC23CCC(CC2=O)C3(C)C)c(=O)n(-c2ccccc2)n1C (configuration not stated)
i	-1.1	O=C(Cc1ccccc1)Nc1cc(Cl)ccc1Sc1ccccc1
i	1.3	CCc1ccc(S(=O)(=O)Nc2ccccn2)cc1
i	-2.5	Nc1nonc1-c1noc(COc2ccccc2Cl)n1
i	-0.03	CCN1CCN(c2ccc(S(=O)(=O)N3CCOCC3)cc2NC(=O)c2ccccc2SC)CC1
i	-0.73	Cc1cc(N2CCN(c3ccc(F)cc3)CC2)n2ncnc2n1
i	-0.63	Cc1ccccc1C(=O)NC(C)C1CC2CCC1C2 (configuration not stated)
-6.7*	-0.28*	Cc1ccc(NCCC(=O)c2cccs2)cc1C
i	-0.07	CC(C)=C1C(=O)NN(c2cccc(Cl)c2)C1=O
i	-1.3	Cc1nccn1CC(=O)O
i	-0.35	CC(OC(=O)C1COc2ccccc2O1)C(=O)N(C)c1ccccc1 (configuration not stated)
i	0.83	CCCCOCCCNC(=O)N[C@H](C(=O)O)C(C)CC (some centres not stated)
i	2.8	COc1ccc(OC)c2[nH]c(C(=O)O)cc12
-6.2*	0.35*	O=C1NC2(Nc3ccccc31)C(=O)Nc1ccc(Br)cc12 (configuration not stated)
i	0.88	CC(C)(C)NC(=O)CN(Cc1cccs1)C(=O)CCN1CCc2ccccc21
i	-0.54	O=C(N1CCCCC1)N1CCN(S(=O)(=O)c2ccccc2)CC1
i	0.61	COc1ccc(C(=O)Nc2ccc(-c3n[nH]c(=S)o3)cc2)cc1OC
i	-0.02	COc1ccc(CNC(=S)Nc2ccc(S(N)(=O)=O)cc2)cc1
i	0.37	CCCc1nnc(SCC(=O)Nc2cc(C)on2)n1CCOC
i	1	CC(C)NC(=O)COc1coc(CN2CCN(Cc3ccccc3)CC2)cc1=O
i	0.87	O=c1c2c(ncn1Cc1ccccc1)nc1n2CCC1
i	-0.61	COc1cc(-c2noc(C)c2-c2ccc(N(C)C)nc2)cc(OC)c1OC
i	-0.31	CCCOC1CCCN(Cc2nc(-c3cnccn3)no2)C1 (configuration not stated)
i	2.1	CCN(Cc1ccccc1)C(=O)C1CCN(CC2CC=CCC2)CC1 (configuration not stated)
i	-1.4	C(=N\n1cnnc1)/c1nc2ccccc2[nH]1
i	-3.1	COc1ccc(CCn2c(=N)c(C(=O)NC3CCCC3)cc3c(=O)n4cccc(C)c4nc32)cc1
i	-0.95	Cc1cc(C)nc(N2CCC(C(=O)NCc3cccc(C(F)(F)F)c3)CC2)n1

In a second layout: entries from further up.
Compound	KCNQ2 inh	KCNQ2 inh baseline
CC(C)NC(=O)COc1coc(CN2CCN(Cc3ccccc3)CC2)cc1=O	i	1
CCCc1nnc(SCC(=O)Nc2cc(C)on2)n1CCOC	i	0.37
CCCOC1CCCN(Cc2nc(-c3cnccn3)no2)C1 (configuration not stated)	i	-0.31

The list continues:
KCNQ2 inh	KCNQ2 inh baseline	smiles
i	-0.01	COc1ccc(OC)c(C2C3=C(CCCC3=O)Nc3c2c(=O)n(C)c(=O)n3C)c1 (configuration not stated)
i	0.01	CCNC(=O)n1nccc1C(C)Oc1ccccc1 (configuration not stated)
i	1.9	Cc1ccc(-c2csc(N(CC3CCCO3)C(=O)c3ccco3)n2)cc1 (configuration not stated)
i	-0.02	O=C(Cc1ccc(Cl)cc1)NCCS(=O)(=O)N1CCN(c2ccccc2F)CC1
i	-0.03	CCOC(=O)/C(C#N)=C/Nc1ccsc1C(=O)OC
i	2	COc1cccc(N2CC(C(=O)Nc3nnc(SCc4ccccn4)s3)CC2=O)c1 (configuration not stated)
i	-1.4	COc1ccccc1NC(=O)Nc1nc(CC(=O)N2CCN(c3ccc(F)cc3)CC2)cs1
i	0.05	CN(C)c1ccc(CNC(=O)CN(C)S(=O)(=O)c2cccc3cccnc23)cc1
i	0.52	O=C(NCC(c1cccnc1)N1CCOCC1)Nc1ccccc1 (configuration not stated)
i	0.77	Cc1cc2cc(C(c3nnnn3Cc3ccco3)N3CCCCC3)c(=O)[nH]c2cc1C (configuration not stated)
